NPYLR7 ag – activates Aedes aegypti NPYLR7 receptor; actives 0.15% (n = 270,000); HEK293T NPYLR7/Galpha15, GCaMP6s calcium fluorescence; activation, % at 10 µM; in the data active = activation above about 40%;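 note: 0% = vehicle and 100% = reference agonist at the receptor; some compounds past the cut are filed as inactive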
NPYLR7 ag max-min – further read-out of NPYLR7 ag, marked with its call; activation, %; measured here: Max-Min RFU normalised activation; some inactives read as strong as hits;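 span of the calcium signal over five minutes; 0% = vehicle and 100% = native peptide agonist; compound fluorescence can raise it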
* hit, by the source's call; & = joins results of further samples. Only part of the results is shown; count on the stated rates, not on these rows.

| entry | Structure | NPYLR7 ag | NPYLR7 ag max-min |
| --- | --- | --- | --- |
| 1 | CC1(C(=O)NS(=O)(=O)Cc2ccccc2)CCN1C(=O)Cc1ccccc1Cl (stereo unspecified) | 3 | 0 |
| 2 | CCSC1=NC2(CCCCC2)Nc2sc3c(c21)CCCC3 | 3 | 1 |
| 3 | COc1ccc2sc(SCc3csc(-c4ccc(C(F)(F)F)cc4)n3)nc2c1 | 4 | 6 |
| 4 | Cc1cc(C)nc(Nn2ccc3c(cnc4ncnn43)c2=O)n1 | 4 | 6 |
| 5 | Cc1ccc(C(C)NC(=O)c2cc(CN3CCC(O)CC3)on2)cn1 (stereo unspecified) | 39 | 24 |
| 6 | O=c1[nH]n(CC2COC3(CCCCC3)O2)c(=O)c2ccccc12 (stereo unspecified) | 1 | -1 |
| 7 | CCN1CCN(c2cc(C)nc3c(-c4ccccc4)c(C)nn23)CC1 | 0 | -4 |
| 8 | COc1ccc(CCN(C)S(=O)(=O)c2ccc(OC)c(N3CCN(C(=O)c4cc(F)ccc4Cl)CC3)c2)cc1OC | 10 | 3 |
| 9 | O=C(O)C1CCCN(S(=O)(=O)c2ccc(Cl)s2)C1 (stereo unspecified) | 1&-1 | 4&-2 |
| 10 | Cc1ccc(-n2ncc3c(NNC(=O)c4cccc([N+](=O)[O-])c4)ncnc32)cc1Cl | 1 | -1 |
| 11 | COC(=O)C1C(=O)N2CCCSC2=C(C#N)C1c1cccs1 (stereo unspecified) | 1 | 1 |
| 12 | CCc1[nH]c2c(CNC(=O)C3CCOC3)cc(F)cc2c1C (stereo unspecified) | 4 | 2 |
| 13 | N#Cc1c(C2CC2)cc(-c2ccccc2)n2c1nc1ccccc12 | -4 | -3 |
| 14 | COCCN(Cc1cccc(OS(=O)(=O)c2ccc(F)cc2)c1)C(=O)c1cccc(Br)c1 | 1 | -1 |
| 15 | O=C(NCc1cccs1)c1cncn1-c1cccc(-c2ccccc2C(F)(F)F)c1 | 0 | 0 |
| 16 | CC(C)(C)c1ccc(CN(Cc2ccc(F)cc2)Cc2nc(C(=O)NCc3ccncc3)co2)cc1 | -3 | -3 |
| 17 | Cc1ccc(Nc2ccccc2C(=O)N(C)Cc2cc(C)on2)cc1 | 0 | -1 |
| 18 | O=C(Cc1ccccc1)NC1CCN(c2ccccc2C(=O)N2CCN(c3ccccn3)CC2)CC1 | 1 | 9 |
| 19 | COc1ncccc1CNC(=O)c1ccc(O)c(Cl)c1 | 0 | -1 |
| 20 | O=C(CS(=O)Cc1csc(Br)c1)Nc1ccc(N2CCCC2=O)cc1 (stereo unspecified) | 3 | 2 |
| 21 | CC(NC(=O)c1coc(CN(Cc2ccc(Cl)cc2)Cc2cccc(C(F)(F)F)c2)n1)c1ccccc1 (stereo unspecified) | 5 | 7 |
| 22 | Cc1ccc(S(=O)(=O)Nc2ccccc2C(=O)Nc2nc(-c3ccc(F)cc3)cs2)cc1 | -1 | 0 |
| 23 | OCCC#Cc1ccc(CN2CCN(c3ncnc4nc[nH]c34)CC2)cc1 | 18 | 7 |
| 24 | Cc1cccc(NC(=O)N2CCSC2c2ccccc2OCc2ccccc2)c1C (stereo unspecified) | 13 | 20 |
| 25 | O=[N+]([O-])c1ccccc1C=CC1Nc2cccc3cccc(c23)N1 | 5 | 6 |
| 26 | O=C(Nc1ccc(-n2cncn2)c(F)c1)c1ccccc1OC(F)F | -1 | -4 |
| 27 | Cn1ccnc1S/C(=C/C=C(C#N)C#N)c1ccc(Cl)cc1 | 12 | 7 |
| 28 | O=C(CN1CCN(C(=O)c2cn[nH]c2)CC1)Nc1ccccc1Cl | 8 | 7 |
| 29 | Cc1cc(C)cc(SCc2ccc(C(=O)N3C4CCC3CC(Oc3cc(C)ccc3Cl)C4)cc2)c1 (stereo unspecified) | -15 | -17 |
| 30 | C1=CC2CCC1ON2c1ccccc1 (stereo unspecified) | 5 | 5 |
| 31 | NC(N)=NCCC[C@@H](NC(=O)[C@@H](N)Cc1ccc(O)cc1)C(=O)O | -6 | -9 |
| 32 | COc1cc(N(C)CCCc2cnn(C)c2)ncn1 | 14 | 10 |
| 33 | COCCN(CC(=O)N(CCc1ccc(OC)c(OC)c1)Cc1sccc1C)C(=O)c1cccc(C(F)(F)F)c1 | 26 | 24 |
| 34 | COc1ccc(CN(C)Cc2nc(Cc3ccccc3Cl)no2)cc1OC | 3 | -2 |
| 35 | Cc1cc(Br)ccc1NS(=O)(=O)CC1CCCCO1 (stereo unspecified) | -4 | -4 |
| 36 | COc1ccccc1C1CCCN1C(=O)c1cn(-c2ccccc2)nn1 (stereo unspecified) | -1 | -8 |
| 37 | CCC1CN(Cc2cc3ccccc3nc2OC)CCN1C(C)C (stereo unspecified) | -4 | -14 |
| 38 | CC(=NN1CCN(Cc2ccc(Cl)cc2)CC1)c1ccc2ccccc2c1 | -6 | -14 |
| 39 | CCNC(=O)N(CC(=O)N(Cc1ccc(F)cc1)Cc1ccc(C)s1)C1CCCCC1 | -10 | -20 |
| 40 | CCCCOc1ccc(-c2nc(C3CCC(CCCC)CC3)no2)cc1 (stereo unspecified) | -7 | -10 |
| 41 | C=CCN(CC(=O)N(Cc1ccc(F)cc1)Cc1ccc(C)s1)S(=O)(=O)c1ccc(Cl)cc1 | 6 | 17 |
| 42 | COc1ccc2[nH]c(I)c(CCNC(C)=O)c2c1 | -1 | -9 |
| 43 | O=C(NCc1nnc2n1CCCCC2)c1ccc(OCc2cscn2)cc1 | -13 | -13 |
| 44 | O=C(Nc1nc(-c2ccc3c(c2)CCCC3)cs1)c1ccc2c(c1)OCO2 | 12 | 4 |
| 45 | COc1ccc(C(C)NC(=O)CN(C)C2CCS(=O)(=O)C2)cc1F (stereo unspecified) | 2 | -13 |
| 46 | COc1ccc(C(N)=O)cc1-c1ccnc2[nH]ccc12 | -1 | -7 |
| 47 | Nc1cccc(-c2cncc(NCCCN3CCOCC3)n2)c1 | -9 | -12 |
| 48 | Cc1cccc(-n2c(SCC(=O)NC3CCCC3)nc3ccccc3c2=O)n1 | -1 | 9 |
| 49 | CN(Cc1ccco1)CC1CCCN(CCc2cccc(C(F)(F)F)c2)C1 (stereo unspecified) | 10 | 8 |
| 50 | CC1CCCCN1S(=O)(=O)NCCc1ccccc1F (stereo unspecified) | 6 | 5 |
| 51 | CCOC(=O)N1CCN(C(=O)c2cc3n(n2)CCN(Cc2cc(OC)cc(OC)c2)C3=O)CC1 | -6 | -4 |
| 52 | CC(=O)NC(C(=O)NC(C)c1ccco1)C(C)C (stereo unspecified) | -1 | -5 |
| 53 | CN(CCCNC(=O)C1CCC(CNC(=O)OC(C)(C)C)CC1)c1ccccc1 (stereo unspecified) | -1 | -1 |
| 54 | O=C(Nc1cccc(-c2cccc(-c3ccc(F)cc3)n2)c1)C(F)(F)C(F)(F)C(F)(F)F | 15 | 17 |
| 55 | O=C1NC(=O)C(Cc2ccccc2Cl)(C2CCNCC2)N1 (stereo unspecified) | 27 | 17 |
| 56 | CCc1ccc(S(=O)(=O)N2CCCC(C(=O)c3sccc3C)C2)cc1 (stereo unspecified) | -2 | -6 |

7 structures already listed, ordered by count of non-hydrogen atoms, smallest number first:
| entry | Structure | NPYLR7 ag | NPYLR7 ag max-min |
| --- | --- | --- | --- |
| 55 | O=C1NC(=O)C(Cc2ccccc2Cl)(C2CCNCC2)N1 (stereo unspecified) | 27 | 17 |
| 47 | Nc1cccc(-c2cncc(NCCCN3CCOCC3)n2)c1 | -9 | -12 |
| 56 | CCc1ccc(S(=O)(=O)N2CCCC(C(=O)c3sccc3C)C2)cc1 (stereo unspecified) | -2 | -6 |
| 49 | CN(Cc1ccco1)CC1CCCN(CCc2cccc(C(F)(F)F)c2)C1 (stereo unspecified) | 10 | 8 |
| 48 | Cc1cccc(-n2c(SCC(=O)NC3CCCC3)nc3ccccc3c2=O)n1 | -1 | 9 |
| 53 | CN(CCCNC(=O)C1CCC(CNC(=O)OC(C)(C)C)CC1)c1ccccc1 (stereo unspecified) | -1 | -1 |
| 54 | O=C(Nc1cccc(-c2cccc(-c3ccc(F)cc3)n2)c1)C(F)(F)C(F)(F)C(F)(F)F | 15 | 17 |

Other compounds:
| entry | Structure | NPYLR7 ag | NPYLR7 ag max-min |
| --- | --- | --- | --- |
| 57 | CCC(C)N(Cc1ccc(OC)c(OC)c1)CC(O)COc1ccc(Cl)cc1 (stereo unspecified) | 9 | 11 |
| 58 | CCS(=O)(=O)N(C)C(C)Cc1ccc(C)cc1 (stereo unspecified) | -2 | -9 |
| 59 | c1ccc(COC2CCN(Cc3nc(-c4ccc5c(c4)OCO5)no3)CC2)nc1 | 0 | 0 |
| 60 | Cc1cc(NC2CCS(=O)(=O)C2)nc2ccccc12 (stereo unspecified) | 2 | 3 |
| 61 | COCCCN(CC(=O)N(Cc1ccc2c(c1)OCO2)Cc1cccs1)C(=O)Nc1cccc(Cl)c1 | 6 | 5 |
| 62 | Cc1ccc(NC(=O)CNC(=O)CN(C(=O)c2ccc(Cl)c(Cl)c2)C(C)C)cc1 | 3 | 5 |
| 63 | Cn1c(C2CCCCN2C(=O)c2ccc(CNC(N)=O)cc2)nc2ccccc21 (stereo unspecified) | 0 | 8 |
| 64 | CC(=O)Nc1ccccc1OCC(=O)Nc1ccc2c(c1)OCO2 | 7 | 9 |
| 65 | COC(=O)c1cccc2c1CN(C/C=C/c1ccccc1)CC2 | 9 | 9 |
| 66 | CCCOc1nn(CCC)cc1C(=O)Nc1ccc(C)cc1 | 5 | -6 |
| 67 | COc1cccc(CN2C(=O)COCc3cc(-c4cncnc4)ccc32)c1 | 4 | 1 |
| 68 | CCOC(=O)C1(Cc2cccc(OC)c2)CCN(Cc2ncc[nH]2)CC1 | 12 | -1 |
| 69 | O=C(/C=C/c1ccccc1)NC1CCN(c2ccccc2C(=O)NCCc2cccs2)CC1 | 1 | 4 |
| 70 | CC(C)c1ccccc1N1C(=O)CSC1c1cccc(NC(=O)c2cccs2)c1 (stereo unspecified) | -1 | 5 |
| 71 | Cc1[nH]nc2ncc(C(=O)N(C)CC34CC5CC(CC(C5)C3)C4)cc12 | 10 | 6 |
| 72 | Cc1ccc(NC2(C(=O)N(C)CC3CCCNC3)CCCC2)cc1 (stereo unspecified) | 1 | 12 |
| 73 | COCCNc1ncc2c(n1)c(=O)c(C#N)c1[nH]c3ccc(Br)cc3c(=O)n12 | 12 | 11 |
| 74 | N#Cc1ccccc1CO[C@]1(C(=O)NCC2CC2)CC(OCc2c(F)cccc2F)[C@H](O)[C@H](O)C1 (stereo partly specified) | 4 | 4 |
| 75 | O=C(c1cn[nH]c1)N1CCOC(CC(c2ccccc2)c2ccccc2)C1 (stereo unspecified) | -9 | -11 |
| 76 | Cc1[nH]c(S(=O)(=O)C(C)c2nnc(CC(C)C)o2)nc1Cc1ccccc1 (stereo unspecified) | 0 | -1 |
| 77 | COc1ccc(-n2nc(C(C)(C)C)cc2NC(=O)CN(C(C)C)S(=O)(=O)c2ccc(C(C)(C)C)cc2)cc1 | -1 | 9 |
| 78 | CCOc1ccc(-c2nnc(SC(C)C(=O)NC(C)(C)C)o2)cc1 (stereo unspecified) | 24 | 12 |
| 79 | CCc1nc2c(OCCOC)cccn2c1N(C)C(=O)c1ccco1 | -12 | -16 |
| 80 | CN(CCCn1ccnc1)C(=O)Nc1cccc(Cl)c1F | -22 | -24 |

Complete entries as entered above. Screens in order: NPYLR7 ag	NPYLR7 ag max-min
`COc1ccc(-n2nc(C(C)(C)C)cc2NC(=O)CN(C(C)C)S(=O)(=O)c2ccc(C(C)(C)C)cc2)cc1` as listed: -1	9
`CCOc1ccc(-c2nnc(SC(C)C(=O)NC(C)(C)C)o2)cc1` (stereo unspecified) as listed: 24	12
`CCc1nc2c(OCCOC)cccn2c1N(C)C(=O)c1ccco1` as listed: -12	-16

Remaining list, next part.
| entry | Structure | NPYLR7 ag | NPYLR7 ag max-min |
| --- | --- | --- | --- |
| 81 | CC1c2[nH]c3ccccc3c2CCN1C(=O)COC1CCCC1 (stereo unspecified) | -24 | -23 |
| 82 | Cc1ccc(C(=O)NCc2ccnc(-n3cccn3)c2)s1 | -3 | -3 |
| 83 | O=C(NCC12CC3CC(CC(C3)C1)C2)c1cccc(S(=O)(=O)NCc2ccco2)c1 | 10 | 5 |
| 84 | COCC(=O)Nc1cc(C)nn1-c1ncnc2c1cnn2-c1ccc(C)cc1C | 4 | 3 |
| 85 | Cn1ncc2c(=O)[nH]c(NCCc3coc(-c4ccccc4)n3)nc21 | 17 | 12 |
| 86 | CCN(CC)c1nc(SC)ncc1CNCc1c(F)cccc1Cl | 14 | 11 |
| 87 | O=C(Nc1ccc(Nc2ccc(F)cc2)c2ccncc12)C1CCOC1 (stereo unspecified) | 2 | 2 |
| 88 | COc1cccc(-n2cc(CNC(=O)C34CNCC3CNC4)cn2)c1 (stereo unspecified) | 1 | -5 |
| 89 | O=C(c1cccc(O)c1)N1CCC(Cc2n[nH]c(=O)n2-c2ccccc2)CC1 | 0 | 0 |
| 90 | COCCN(CC(=O)Nc1nc(CC(=O)N2CC3(C)CC2CC(C)(C)C3)cs1)C(=O)c1ccc(OC)cc1 (stereo unspecified) | 14 | 13 |
| 91 | C=CCN(Cc1cccc(OCC)c1)C(=O)c1ccc[nH]c1=O | 0 | 7 |
| 92 | COc1ccc(N)cc1-n1nnnc1C1CC1 | 2 | 85 |
| 93 | CN(C)CCCN1C(=O)C(=Cc2ccccc2)SC1=S | 7 | 8 |
| 94 | CCOC(=O)CNC(=O)c1cc2c(=O)n(C)c(=O)n(C)c2n1CCCOC | -1 | -3 |
| 95 | Cc1ccc(S(=O)(=O)NC(=O)C2(C)CCN2C(=O)CCc2ccc(Cl)cc2Cl)nc1 (stereo unspecified) | 1 | -2 |
| 96 | CCCNC(=O)CCNC(=O)C1CC(c2ccccc2C)=NO1 (stereo unspecified) | -7 | -3 |
| 97 | O=S(=O)(c1cccc2nsnc12)N1CCn2c(nc3ccccc32)C1 | 2 | 1 |
| 98 | CCCc1cc(=O)[nH]c(-n2nc(C)cc2NC(=O)c2ccccc2)n1 | 5 | 2 |
| 99 | COc1ccc2c(c1)SC(C)C(=O)N2Cc1ccc(C)cc1 (stereo unspecified) | 5 | 3 |
| 100 | O=c1cc(CSc2nnc3sc4ccccc4n23)nc2sccn12 | 0 | -3 |
| 101 | CC(Oc1ccc(C#N)cc1)C(=O)Nc1ncccc1Br (stereo unspecified) | 5 | 3 |
